# High-throughput results (PubChem BioAssay)
# Cruzain inh Det = inhibitors of Trypanosoma cruzi cruzain with detergent; purified cruzain, Z-FR-AMC fluorescence, 0.01% Triton; Potency, µM, without a hit: max response, negative = inhibition, hits mostly inhibitors; actives 0.43% (n = 200,000);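 note: plate controls were neutral wells for no effect and buffer without enzyme for full effect; nearly all actives have a fitted effect of over 40% in size; top concentration of the series not given in the record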
# Target sequence (P25779 123-467 limits assumed): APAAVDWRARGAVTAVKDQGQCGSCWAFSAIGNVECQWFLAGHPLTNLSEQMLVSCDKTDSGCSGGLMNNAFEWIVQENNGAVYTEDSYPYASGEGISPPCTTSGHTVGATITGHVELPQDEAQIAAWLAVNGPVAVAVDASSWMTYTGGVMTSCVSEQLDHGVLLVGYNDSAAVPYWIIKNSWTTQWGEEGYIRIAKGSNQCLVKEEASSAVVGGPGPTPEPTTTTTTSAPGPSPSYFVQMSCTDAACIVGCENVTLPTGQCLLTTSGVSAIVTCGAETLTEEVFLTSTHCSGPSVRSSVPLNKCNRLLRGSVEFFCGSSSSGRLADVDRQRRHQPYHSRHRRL
#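 Read-out: AMC fluorescence (360 nm excitation, 450 nm emission), four reads over 2 min, first-to-third difference used. Conditions: cruzain 1.5 nM, Z-FR-AMC 2 uM, pH 5.5 acetate, 5 mM DTT, 0.01% Triton X-100.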
# NS1 inh = blocks influenza NS1 protein function; S. cerevisiae slowed by influenza A NS1, growth recovery by OD600; Potency, µM (doses to about 46.1 µM), without a hit: at the top dose activity, positive = more growth; actives 0.4% (n = 270,000); active means well fitted rising curve with a large enough effect; inconclusive means small, poorly fitted or top-dose-only effect; inactive means no such curve, though single readings can be large or run the other way; note: nearly all actives have a fitted effect of over 50% in size
#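 Read-out: OD600 growth recovery of NS1-expressing budding yeast. Cells grown overnight at 30C in -URA glucose medium, washed, resuspended and diluted 1:100 in 2% galactose assay medium, pH 6.0. Same strain lacking NS1 served as positive control.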
# MARV entry inh = blocks Marburg virus binding to or entry into cells. Marburg virus pseudotyped entry inhibition, cell reporter; control for the full effect not named in the record; about a third of the inactives were read at about 46 µM. Potency, µM (highest dose often 37.8 µM), for the others: top-dose activity change, negative = inhibition, actives largely listed as inhibitors. actives 1.8% (n = 300,000). AID 540276; active = well fitted inhibition curve with a large enough effect; inconclusive = small, poorly fitted or top-dose-only effect, or effect the other way; inactive = flat fitted curve, though single readings scatter; tested in HEK293 cells; about a fifth of its hits are not listed in these tables; note: % is set by controls: 0 for no effect and ±100 for the full control effect; luciferase read-out
# StopGo reporter = FMDV 2A StopGo reporter, luciferase signal; human cells with a luciferase reporter of 2A StopGo recoding; control for the full effect not named in the record; AID 1159524; Potency, µM (top dose mostly 57.9 µM), for the others: top-dose signal change, negative = less light; actives 1.2% (n = 410,000); active = well fitted falling curve with a large enough effect; inconclusive = small, poorly fitted or top-dose-only effect; inactive = no such curve, though single readings can be large or run the other way; tested in HEK293T cells; note: % is set by controls: 0 for no effect and ±100 for the full control effect; nearly all actives have a fitted effect of over 45% in size; luciferase light after 4 h
# SARS PLpro yeast = blocks SARS-CoV papain-like protease in a yeast assay; S. cerevisiae expressing SARS-CoV PLpro, growth rescue; control for the full effect not named in the record; Potency, µM (top dose mostly 32.9 µM), for inactives: top-dose activity, positive = growth rescue; AID 485353; actives 0.19% (n = 330,000); active means well fitted rising curve with a large enough effect; inconclusive means small, poorly fitted or top-dose-only effect; inactive means no such curve, though single readings can be large or run the other way; note: 0% is about no effect; nearly all actives have a fitted effect of over 55% in size; growth read by luminescence after 48 h
# Cruzain inh noDet = cruzain (T. cruzi) inhibition without detergent; purified cruzain, Z-FR-AMC fluorescence, no detergent; Potency, µM, for the others: max response, negative = inhibition, most hits filed as inhibitors; actives 2.3% (n = 200,000);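 note: plate controls were enzyme without inhibitor for no effect and buffer without enzyme for full effect; nearly all actives have a fitted effect of over 40% in size; top concentration of the series not given in the record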
#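 Detergent-free condition (0.00005% Triton X-100) in acetate buffer pH 5.5 with DTT. 1.5 nM enzyme and compound were pre-mixed 15 min, then 2 uM Z-FR-AMC substrate added; reaction progress from fluorescence change between first and third reads (60 s).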
# Lassa entry inh = Lassa virus entry inhibition | Lassa virus pseudotype entry inhibition, cell reporter; control for the full effect not named in the record | AID 540256 | actives 1.2% (n = 300,000) | Potency, µM (titrated, usually from 37.9 µM), for the others: at the highest dose activity change, negative = inhibition, actives largely listed as inhibitors; active means well fitted inhibition curve with a large enough effect; inconclusive means small, poorly fitted or top-dose-only effect, or effect the other way; inactive means flat fitted curve, though single readings scatter; tested in HEK293 cells; note: % is set by controls: 0 for no effect and ±100 for the full control effect; nearly all actives have a fitted effect of over 50% in size; luciferase read-out
# RE007 growth inh = less growth of the S. pombe RE007 Vpr strain | S. pombe RE007 Vpr strain, BacTiter-Glo ATP luminescence, 24 h; control for the full effect not named in the record | Potency, µM (doses to about 92.2 µM), for the others: at the highest dose activity change, negative = less growth | actives 0.21% (n = 360,000); active = well fitted falling curve with a large enough effect; inconclusive = small, poorly fitted or top-dose-only effect; inactive = no such curve, though single readings can be large or run the other way;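 note: % is set by controls: 0 for no effect and ±100 for the full control effect; nearly all actives have a fitted effect of over 50% in size; the assay follows cell death caused by Vpr and the record does not say whether a fall means rescue or toxicity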
#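 Fission yeast RE007 carrying one integrated HIV-1 vpr copy, seeded at OD 0.01 in PMG+AL medium with 23 nL pinned compound. Grown 24 h at 30 degrees; viability read by BacTiter-Glo luminescence after 5 min.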
# Active calls of the source: *; ? = inconclusive; · = no result given; & = joins results of further samples; [ ] = dose if it differs, or a comment. Unless noted, calls come from the whole dose curve; as a rule, active = well fitted curve in the direction sought with a large enough effect; inconclusive = small, poorly fitted or top-dose-only effect, or another doubt; inactive = no such curve, though single readings can be large; an effect the other way counts as inactive or inconclusive. Potency is the fitted concentration of half-maximal effect. Rows were taken by chance; overall some 4.5% were active at least once.
SMILES,Cruzain inh Det,NS1 inh,MARV entry inh,StopGo reporter,SARS PLpro yeast,Cruzain inh noDet,Lassa entry inh,RE007 growth inh
Cc1ccc(C)c(-n2c(SCC(=O)NCC3CCCO3)nnc2-c2ccoc2C)c1 (configuration not stated),-1.3%,-1%,-7%,-5%,-14%,?,11%,1%
COc1cccc(C(=O)Nc2nc(-c3ccc(Br)cc3)ns2)c1,-2.0%,·,-13%[46.1 µM],?,·,25µM*,-9%[46.1 µM],·
CC(C)(C)c1ccc2c(c1)C(c1ccc3c(c1)OCO3)CC(=O)O2 (configuration not stated),-0.3%,·,·,-19%,-30%,1%,·,-8%
CCOc1ccccc1N1CC(C(=O)Nc2nccs2)CC1=O (configuration not stated),-4.9%,6%,14%,-2%,6%,12%,4%,4%
Cc1cc(Cl)ccc1NC(=O)CCn1nc(C)c2c(C)n(-c3ccccc3)nc2c1=O,-1.9%,·,·,13%,·,-11%,-2%[46.1 µM],·
Cc1cc(NC(=O)CSc2nc3ccccc3c(=O)n2C(C)c2ccccc2)no1 (configuration not stated),-3.2%,20%,3.2µM*,-24%,-3%,16%,2.5µM*,13%
FC(F)Sc1nnc(-c2cccs2)n1-c1ccccc1,3.3%,-4%,-4%,-13%,1%,-1%,7%,18%
CCOc1ccc(CCNC(=O)C2CCN(c3ccc(N4CCOCC4)nn3)CC2)cc1OCC,3.7%,1%,7%,-9%,-2%,3%,0%,-3%
COC1C(C)OC(OC2CC(C)(O)Cc3cc4c(c(O)c32)C(=O)c2c(O)cc3c(c2C4=O)OC2OC3(C)C(O)C(N(C)C)C2O)C(OC)C1(C)OC (configuration not stated),·,·,?,-9%,·,·,?,-5%
COc1ccc(CC(=O)Nc2nccs2)cc1OC,-3.8%,-7%,-26%&-10%,-24%,7%,-7%,14%&-5%,2%
O=C(Nc1ccc(C(F)(F)F)cc1)C1CCCN(S(=O)(=O)c2cccc3cccnc23)C1 (configuration not stated),-9.9%,·,11%[46.1 µM],?,·,6%,-15%[46.1 µM],·
Cc1cc(NS(=O)(=O)c2ccc(NC(=O)c3cc4ccccc4o3)cc2)no1,-2.1%,-2%,·,·,0%,-22%,·,·
O=C(Cn1ncc2c3ccccc3n(Cc3ccccc3F)c2c1=O)NC1CC1,·,7%,·,-22%,1%,·,·,11%
C=CCSc1nnc(NC(=O)CSc2nc3ccccc3o2)s1,7.8%,9%,?,?,-2%,16µM*,2%,7%
CCN1CCN(S(=O)(=O)c2ccc(Cl)c(C(=O)N(CC)CC(=O)Nc3ccc(OC)cc3)c2)CC1,·,-5%,·,-16%,-4%,·,·,0%
Cn1c(SCc2cc(=O)[nH]c(C(C)(C)C)n2)nnc1C(F)(F)F,·,4%,·,1%,3%,·,·,-13%
COc1ccc(/C=C2/SC(=O)N(CCNC(=O)C3CCCN3C(=O)c3cccs3)C2=O)cc1 (configuration not stated),-9.8%,-2%,?,-13%,-7%,29%,-1%,0%
COc1ccc(N2CCn3c2nc2c3c(=O)n(CCc3ccccc3)c(=O)n2C)c(OC)c1,1.3%,1%,2%,·,-2%,6%,·,·
Cc1nnc(NC(=O)CSc2ccc(-c3ccc(Cl)cc3)nn2)s1,·,·,0%,38%[activator],1%,·,23%,23%
CCN(C(=O)Cc1c(C(=O)O)n(C)c2ccccc12)c1ccc(F)cc1,·,·,-2%[46.1 µM],-8%,-3%,·,?,0%
Cc1c(NC(=O)c2cccc(-c3cc4ccccc4oc3=O)c2)cccc1-c1nc2ncccc2o1,-1.8%,18%,?,-23%,-10%,?,?,3%
Cc1ccc2nc(CSc3nnc(Nc4ccccc4C)s3)cc(=O)n2c1,-9.0%,1%,?,0%,10%,-20%,18%,2%
Cc1ccc(S(=O)(=O)N(C)c2ccc(C(=O)N(CC(C)C)C3CCS(=O)(=O)C3)cc2)cc1 (configuration not stated),·,·,-19%,-7%,-5%,·,-25%,-6%
COC(=O)C1=C(C)Nc2ccc(C)cc2S1,-3.4%,3%,1%,42%[activator],-2%,-5%,·,-16%
Nn1cc(-c2ccccc2)nc1SCC(=O)N1CCN(S(=O)(=O)c2ccccc2)CC1,-1.5%,?,14%&14%,-8%,-2%,-3%,-5%,-6%
CCCn1c(N)c(C(=O)CSc2nnc(-c3ccco3)n2Cc2ccccc2)c(=O)[nH]c1=O,-1.7%,5%,6%&6%,-15%,0%,-8%,-9%,6%
Cc1nc2sc(C(c3ccco3)N3CCN(C(c4ccccc4)c4ccccc4)CC3)c(O)n2n1 (configuration not stated),-6.2%,10%,0%,-48%,-14%,?,·,6%
Cc1ccc(C)c(NC(=O)CN(C)C(=O)c2ccc3c(=O)n4c(nc3c2)CCC4)c1,·,·,0%,-9%,-6%,·,10%,-6%
Cc1nn(C)c(C)c1NC(=O)CSc1nc(C2CC2)nc2c1cnn2-c1ccccc1,0.8%,3%,?,?,7%,10%,-24%,4%
O=C(Nc1ccc2c(c1)OCCO2)c1ccc2nccnc2c1,-17%,-71%,?,·,-1%,5%,?,-6%
CC(OC(=O)Cn1[nH]c(=O)c2ccccc2c1=O)C(=O)Nc1cccc(Cl)c1 (configuration not stated),·,·,8%,-6%,17%,·,14%,1%
CCOC(=O)c1c(/N=C/C2C(=O)CCCC2=O)sc2c1CCCC2,·,5%,-9%,-20%,0%,·,-10%,-19%
Cc1ccc(C)n1-c1ccc(NC(=O)c2ccccc2)cc1,-4.7%,7%,?,-4%,8%,-30%,?,6%
Cn1c(=O)[nH]c(=O)c2c1nc(CN1CCN(c3cccc(Cl)c3)CC1)n2CCCc1ccccc1,-6.0%,-93%,-2%,?,1%,?,·,-3%
COc1ccc(N2CCN(C(=O)c3sc4ncn(CC(=O)N5CCCCC5)c(=O)c4c3C)CC2)cc1,·,3%,·,-18%,11%,·,·,1%
COc1cccc(N2CCN(C(=O)CC(C)(C)CC3=NS(=O)(=O)c4ccccc4N3)CC2)c1,·,14%,-17%[46.1 µM],?,-4%,·,?,-2%
Cc1ccc(S(=O)(=O)c2cnc(SC(C)C(=O)Nc3ccccc3)[nH]c2=O)cc1 (configuration not stated),-7.8%,·,-11%[46.1 µM],-17%,·,25%,·,·
CC(=O)N(C(C)=O)c1ncnc2c1c(-c1ccc(Cl)cc1)nn2C(C)(C)C,·,-6%,?,?,1%,·,16µM*,10%
COc1ccc(-c2nc(-c3cccc(C)c3)[nH]c(=O)c2C#N)cc1,-3.5%,6%,-8%,-18%,-3%,10µM*,-11%,21%
Cn1c(Cc2ccccc2)nnc1SCC(=O)N1CCOCC1,-2.2%,3%,-12%,7%,-1%,-7%,5%,6%
O=[N+]([O-])c1cccc(Cl)c1NCCNS(=O)(=O)c1ccc(Cl)cc1,-5.9%,-28%,-8%,30%[activator],-23%,-2%,-3%,8%
O=C(O)Cc1sc(Nc2ccc(F)cc2)nc1-c1cccs1,·,·,?,53%[activator],-5%,·,?,2%
CCn1cc(/C=C(\NC(=O)c2ccccc2F)C(=O)N2CCCC2)c2ccccc21,·,11%,·,-23%,0%,·,·,2%
CC(C)(C)c1cc(C(=O)N/N=C/c2ccc(-c3ccccc3[N+](=O)[O-])o2)n[nH]1,·,16%,·,12%,1%,·,·,2%
O=C1C2(c3ccccc3)CN(CCCO)CC1(c1ccccc1)CN(CCCO)C2,-5.5%,2%,?,·,1%,0%,-13%,-6%
CCN(CC)C(=O)CSc1nc2cc(OC)c(OC)cc2c(=O)n1Cc1ccc(Cl)cc1,1.9%,5%,?,-13%,-6%,?,?,-9%[3.69 µM]
CCCCN1C(=O)/C(=c2\sc3nc(=O)c(-c4ccccc4)nn3c2=O)c2ccccc21,-5.6%,17%,1%,-14%,-1%,?,-1%,9%
COc1ccc(-c2c(S(=O)(=O)c3ccccc3)cnn2-c2ccccc2)cc1,-3.1%,6%,-21%,?,-4%,-1%,7%,1%
CCN(CCn1cccn1)C(=O)c1cc(COc2ccc(F)c(F)c2)on1,·,-19%,?,20%,-4%,·,1%[46.1 µM],-3%
Cc1ccc(SCC2CNc3nc4ccccc4c(=O)n32)c(C)c1 (configuration not stated),6.2%,11%,0%,20%,-6%,-6%,26%,-5%

# Fetched by structure from the entries so far:
SMILES,Cruzain inh Det,NS1 inh,MARV entry inh,StopGo reporter,SARS PLpro yeast,Cruzain inh noDet,Lassa entry inh,RE007 growth inh
O=C(O)Cc1sc(Nc2ccc(F)cc2)nc1-c1cccs1,·,·,?,53%[activator],-5%,·,?,2%
Cc1c(NC(=O)c2cccc(-c3cc4ccccc4oc3=O)c2)cccc1-c1nc2ncccc2o1,-1.8%,18%,?,-23%,-10%,?,?,3%

# (next part)
SMILES,Cruzain inh Det,NS1 inh,MARV entry inh,StopGo reporter,SARS PLpro yeast,Cruzain inh noDet,Lassa entry inh,RE007 growth inh
CCN(CC(=O)NCc1cccs1)S(=O)(=O)c1cccc(C(C)=O)c1,-1.4%,?,-7%,-9%,10%,-7%,8%,-13%
Cc1ccccc1C(=O)Nc1ccnn1C1CCN(C(=O)C2CCOC2)CC1 (configuration not stated),·,8%,-1%,-1%,5%,·,4%,-3%
COc1cc(C2C(C(C)=O)=C(O)C(=O)N2CCN(C)C)ccc1O (configuration not stated),1.6%,-3%,23%,-14%,5%,3%,14%,-2%
O=C(NNC(=O)c1ccc([N+](=O)[O-])cc1)c1ccc(NS(=O)(=O)c2cccs2)cc1,·,·,2%[46.1 µM],50%[activator],7%,·,8%[46.1 µM],-7%
CCCn1c(=O)n(-c2ccccc2Cl)c(=O)c2sc3ccccc3c21,-0.8%,·,23%[46.1 µM],-28%,·,1%,7%[46.1 µM],·
Cc1cccc(OCC(=O)Nc2ccc(S(=O)(=O)Nc3ccccn3)cc2)c1,·,3%,-15%[46.1 µM],-18%,0%,·,-3%[46.1 µM],-20%
CC(C)(C)c1ccc(OC(=O)c2ccc3nsnc3c2)cc1,-6.1%,0%,1%,19%,19%,-11%,?,0%
O=C1N=c2ccccc2=C1c1sc(Nc2cccc(O)c2)nc1O,·,20%,·,0%,-4%,·,·,-7%
